FGF22 binding – binders of human FGF22 protein, primary screen, FGF22 synaptogenesis inhibitor project, biophysical, thermal shift, single point | Fibroblast growth factor 22 (Homo sapiens), Q9HCT0 | calls only at 9.99 µM | 340,000 compounds, 1.5% hits | recombinant FGF22 thermal shift, SYPRO orange fluorescence; percent of sucrose octasulfate shift, DMSO zero;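 active = melting point raised past a set limit in the mean and every replicate; inconclusive = no clear call; three in four hits are not shown here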
Target sequence (Q9HCT0 whole entry, looked up): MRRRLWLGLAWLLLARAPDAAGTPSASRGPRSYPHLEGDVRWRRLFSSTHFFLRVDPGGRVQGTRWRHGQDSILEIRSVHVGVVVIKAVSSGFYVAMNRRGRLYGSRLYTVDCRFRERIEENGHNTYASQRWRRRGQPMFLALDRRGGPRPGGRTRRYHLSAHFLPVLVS
RanGTP-Impb inh – inhibitors of RanGTP-importin-beta interaction, primary screen, biochemical, FRET, CFP-Ran, YFP-importin-beta, homogeneous | inhibition, % (concentration not given with the values) | Ran GTPase (GTP-bound) - importin-beta complex | 300,000 compounds, 1.1% hits | AID 2216, 2009 | cell-free CFP-Ran/YFP-importin-beta FRET ratio;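 active = most replicates above 15%; inconclusive = exactly half above 15%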;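 note: 0% = DMSO wells and 100% = Ran loaded with GDP instead of GTP; wells of about 40 µL received 100 nL stock; the first replicate is given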
ALR H2O2 inh – inhibitors of human ALR sulfhydryl oxidase, primary screen, biochemical, H2O2 detection, HRP-luminol luminescence, single point; FAD-linked sulfhydryl oxidase ALR (Homo sapiens), P55789; 290,000 compounds, 3.8% hits; purified ALR, DTT oxidation; AID 485317, 2010; inhibition, % (no concentration beside the values);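 active = mean and each replicate at 75% or more; inconclusive = only one of the two met; inactive = neither met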;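 note: stock transfer was 7.5 nL into about 7.5 µL; 0% = neutral wells and 100% = wells with inactivated enzyme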
Target sequence (P55789 whole entry, looked up): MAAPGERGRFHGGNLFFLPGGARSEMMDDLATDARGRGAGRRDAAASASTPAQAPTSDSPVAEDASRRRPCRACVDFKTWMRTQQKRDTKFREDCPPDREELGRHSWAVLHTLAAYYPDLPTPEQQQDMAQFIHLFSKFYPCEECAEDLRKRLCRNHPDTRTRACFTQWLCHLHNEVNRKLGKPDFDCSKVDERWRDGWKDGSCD
T cruzi repl – inhibitors of intracellular T. cruzi growth, primary screen, luminescence, NIH3T3 host cells; inhibition, % (test concentration not listed); T. cruzi beta-gal in NIH3T3, 90 h; 300,000 compounds, 1.4% hits;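 active = mean inhibition across valid replicates above about 55%, limit read from the data; inconclusive = mean below that limit but half or more replicates reach it; inactive = mean below it, under half of replicates reach it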;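 note: signal also drops with host cell toxicity which is not excluded here; 0% = plate median of DMSO wells and 100% = zero luminescence signal; higher percent means less beta-gal luminescence so fewer parasites; stock transfer was 50 nL into about 50 µL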
rRNA inh HTS – reduced GFP signal of wild-type E. coli, primary screen, bacterial rRNA inhibitor project, GFP/RFP fluorescence, OD600, single point; AID 720706, 2013; GFP signal change (wild-type ribosome), % (test concentration not listed); E. coli WT GFP vs humanized-ribosome RFP mutants, 24 h; hits give low values; DMSO median 0, no signal -100; 350,000 compounds, 1.6% hits;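 active = significant combined selectivity score with lowered wild-type GFP, culture density cut under 30%, mutant RFP and density less affected; inactive = any of these conditions unmet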; note: one replicate is shown; some compounds called inactive have numbers as strong as hits
AF4-AF9 inh – inhibitors of AF4 peptide binding to AF9, primary screen, biochemical, AlphaScreen, biotin-AF4 peptide, FLAG-AF9, single point. 350,000 compounds, 0.47% hits. inhibition, % at 10 µM. Protein AF-9 (Homo sapiens), P42568;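 active = every replicate reaching a set inhibition limit, whatever the replicate mean, cut at about 25% in these data; inconclusive = mean inhibition reaches that limit but some replicates miss it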;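 note: 0% = plate neutral control median and 100% = total signal loss; the record names both 10 and 1 µM as test concentration; the first replicate is given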
Target sequence (P42568 whole entry, looked up): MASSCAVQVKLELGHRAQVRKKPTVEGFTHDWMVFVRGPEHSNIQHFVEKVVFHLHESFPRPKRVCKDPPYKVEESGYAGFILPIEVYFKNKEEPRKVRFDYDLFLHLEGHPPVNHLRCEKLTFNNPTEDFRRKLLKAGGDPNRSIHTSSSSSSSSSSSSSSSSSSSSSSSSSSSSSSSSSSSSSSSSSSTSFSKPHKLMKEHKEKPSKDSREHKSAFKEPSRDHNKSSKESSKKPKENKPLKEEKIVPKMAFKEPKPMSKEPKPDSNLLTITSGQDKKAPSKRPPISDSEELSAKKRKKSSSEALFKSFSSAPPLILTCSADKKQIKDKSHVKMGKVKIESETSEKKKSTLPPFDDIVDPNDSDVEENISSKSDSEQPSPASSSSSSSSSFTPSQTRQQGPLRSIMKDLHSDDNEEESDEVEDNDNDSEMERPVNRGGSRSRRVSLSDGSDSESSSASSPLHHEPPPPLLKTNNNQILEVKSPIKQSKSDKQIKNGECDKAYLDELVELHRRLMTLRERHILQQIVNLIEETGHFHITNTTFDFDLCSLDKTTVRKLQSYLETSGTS
Calb FLC – C. albicans growth inhibition with fluconazole, primary screen, CaCi-2 strain, Alamar Blue fluorescence. 300,000 compounds, 0.57% hits. growth inhibition, % (concentration not given with the values). C. albicans CaCi-2 (fluconazole-resistant clinical isolate) + fluconazole, 48 h. AID 1979, 2009;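 active = most replicates above 75%; inconclusive = exactly half above 75%; inactive = most below 75%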;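 note: all wells also contain fluconazole at 8 µg/ml as a sub-toxic cotreatment; 0% = median of DMSO wells and 100% = median of geldanamycin control wells; wells of about 8 µL received 7.5 nL stock; the first replicate is given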
Beta apoptosis – inhibitors of cytokine-induced beta cell apoptosis, primary screen, luminescence; INS-1E cytokine-induced death, ATP luminescence, 48 h; percent of positive-control rescue, neutral wells zero; protection from apoptosis, % (test concentration not listed); 300,000 compounds, 0.8% hits;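 active = all replicates at 75% or more, or half of them and the mean; inconclusive = half reach 75% but not the mean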;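 note: 0% = cytokine-treated negative control wells and 100% = positive control rescue; higher means more ATP so stronger rescue from cytokine killing; wells of about 40 µL received 100 nL stock; the first replicate is given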
rRNA inh HTS OD600 – also measured in rRNA inh HTS; calls as there; OD600 change, %; measured here: OD600 growth;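 optical density of the mix in the first replicate; 0 = DMSO median and -100 = no signal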
rRNA inh HTS RFP – also measured in rRNA inh HTS; calls as there; RFP signal change, %; measured here: RFP humanized mutant strains;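 first replicate; 0 = DMSO median and -100 = no signal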
The depositor's hits bear a star.

What do the screens show for `COc1ccc(C)cc1NC(=O)c1ccc2c(SCC(=O)O)c3c(nc2c1)CCCC3`?
FGF22 binding: inactive; RanGTP-Impb inh: 4.0; ALR H2O2 inh: 0; T cruzi repl: -6; rRNA inh HTS: 1; AF4-AF9 inh: -12; Calb FLC: -2; Beta apoptosis: 0; rRNA inh HTS OD600: 4; rRNA inh HTS RFP: 4.5

What do the screens show for `CCc1cc2c(=O)n3c(nc2s1)-c1[nH]c2ccc(OC)cc2c1CC3`?
FGF22 binding: inactive; RanGTP-Impb inh: inconclusive; ALR H2O2 inh: -7; T cruzi repl: 15; rRNA inh HTS: 18; AF4-AF9 inh: 1.2; Calb FLC: -1; Beta apoptosis: 5; rRNA inh HTS OD600: 9; rRNA inh HTS RFP: -0.1

Results for CCc1nnc(NC(=O)CCC(=O)NC2CC2)s1 ?
FGF22 binding: inactive; RanGTP-Impb inh: -0.4; ALR H2O2 inh: -3; T cruzi repl: 27; rRNA inh HTS: 8; AF4-AF9 inh: 0.7; Calb FLC: -1; Beta apoptosis: -2; rRNA inh HTS OD600: 10; rRNA inh HTS RFP: -4.2

Results for Cc1cccnc1NC(=O)c1cccc(S(=O)(=O)N2CCN(c3ccc(F)cc3)CC2)c1 ?
FGF22 binding: inactive; RanGTP-Impb inh: -2.0; ALR H2O2 inh: 3; T cruzi repl: 14; rRNA inh HTS: -8; AF4-AF9 inh: -0.1; Calb FLC: -15; Beta apoptosis: 2; rRNA inh HTS OD600: -9; rRNA inh HTS RFP: 0.7

What do the screens show for `Cc1ccc(OCC(=O)NNC(=O)C2CCN(c3ncccn3)CC2)cc1`?
RanGTP-Impb inh: -2.5; ALR H2O2 inh: -7; T cruzi repl: -7; Calb FLC: -8; Beta apoptosis: -8

Results for COc1ccc(C(CNC(=O)COc2cccc(C(F)(F)F)c2)N2CCCC2)cc1 (stereo not drawn) ?
FGF22 binding: inactive; ALR H2O2 inh: -6; rRNA inh HTS: 2; AF4-AF9 inh: 1.8; Beta apoptosis: 0; rRNA inh HTS OD600: -8; rRNA inh HTS RFP: 4.4

How did Cc1nc(-c2ccc(NC(=O)c3ccc(Br)o3)cc2)cs1 do in these assays?
RanGTP-Impb inh: -3.7; ALR H2O2 inh: -3; T cruzi repl: 5; rRNA inh HTS: 2; AF4-AF9 inh: 1.2; Calb FLC: 11; Beta apoptosis: -6; rRNA inh HTS OD600: 7; rRNA inh HTS RFP: -2.0

Results for CCOc1cc(CN2CCN(C(=O)c3ccco3)CC2)ccc1OC ?
RanGTP-Impb inh: -4.0; ALR H2O2 inh: -10; T cruzi repl: -3; rRNA inh HTS: 14; Calb FLC: 3; Beta apoptosis: -5; rRNA inh HTS OD600: 4; rRNA inh HTS RFP: 4.0

What do the screens show for `Cc1ccc(NS(=O)(=O)N2CCOCC2)c(C)c1`?
FGF22 binding: inactive; RanGTP-Impb inh: -1.9; ALR H2O2 inh: -1; T cruzi repl: -4; rRNA inh HTS: 7; AF4-AF9 inh: -0.8; Calb FLC: 3; Beta apoptosis: -6; rRNA inh HTS OD600: 14; rRNA inh HTS RFP: 1.7

What do the screens show for `CC(C)(C)NC(=O)C(c1ccc(F)cc1)N(C(=O)CCC(=O)Nc1ccccn1)C1CCCC1` (stereo not drawn)?
FGF22 binding: inactive; RanGTP-Impb inh: 3.6; ALR H2O2 inh: -2; T cruzi repl: 7; rRNA inh HTS: 6; AF4-AF9 inh: 0.7; Calb FLC: 2; Beta apoptosis: -2; rRNA inh HTS OD600: -6; rRNA inh HTS RFP: 3.3

How did CC(Oc1cc(C(F)(F)F)cc(C(F)(F)F)c1)C(=O)NC(N)=O (stereo not drawn) do in these assays?
RanGTP-Impb inh: -5.2; ALR H2O2 inh: 4; T cruzi repl: -2; rRNA inh HTS: -46; Calb FLC: 4; Beta apoptosis: -24; rRNA inh HTS OD600: -74; rRNA inh HTS RFP: -15

What do the screens show for `CCN(CC)CCN=C1CCCc2ccccc2N1`?
RanGTP-Impb inh: 5.1; ALR H2O2 inh: -10; T cruzi repl: 11; Calb FLC: -5; Beta apoptosis: -2

How did CCc1ccc(-n2c(=O)c3ccc(C(=O)NCCc4ccccc4)cc3n(CC(N)=O)c2=O)cc1 do in these assays?
FGF22 binding: inactive; RanGTP-Impb inh: -0.2; ALR H2O2 inh: -1; T cruzi repl: -2; rRNA inh HTS: 3; AF4-AF9 inh: -0.5; Calb FLC: -4; Beta apoptosis: -1; rRNA inh HTS OD600: 3; rRNA inh HTS RFP: -0.1

What do the screens show for `O=C1OC2CC3CC1CC(O)(C3)C2` (stereo not drawn)?
RanGTP-Impb inh: 4.9; ALR H2O2 inh: -8; T cruzi repl: -1; Calb FLC: 7; Beta apoptosis: -3

What do the screens show for `CCn1cc(CN2CCCC(CNS(=O)(=O)c3cccc4cccnc34)C2)cn1` (stereo not drawn)?
FGF22 binding: inactive; RanGTP-Impb inh: 4.1; ALR H2O2 inh: -1; T cruzi repl: 16; rRNA inh HTS: 9; AF4-AF9 inh: 0.4; Calb FLC: -10; Beta apoptosis: 3; rRNA inh HTS OD600: 2; rRNA inh HTS RFP: 2.7

What do the screens show for `CCOC(=O)CSc1ccc(S(=O)(=O)N2CCCCC2)cc1[N+](=O)[O-]`?
FGF22 binding: inactive; RanGTP-Impb inh: 6.4; ALR H2O2 inh: -6; T cruzi repl: 3; rRNA inh HTS: 11; AF4-AF9 inh: -0.3; Calb FLC: -2; Beta apoptosis: 1; rRNA inh HTS OD600: 12; rRNA inh HTS RFP: 10

What do the screens show for `COC(=O)c1ccccc1NC(=O)c1cc(-c2ccc(O)cc2)on1`?
FGF22 binding: inactive; RanGTP-Impb inh: -0.1; ALR H2O2 inh: -2; T cruzi repl: -16; rRNA inh HTS: 0; AF4-AF9 inh: 1.1; Calb FLC: 4; Beta apoptosis: -10; rRNA inh HTS OD600: 15; rRNA inh HTS RFP: 4.9

How did O=C1c2ccccc2NC(c2ccco2)N1/N=C/c1ccco1 (stereo not drawn) do in these assays?
FGF22 binding: inactive; RanGTP-Impb inh: 2.6; ALR H2O2 inh: 0; T cruzi repl: -2; rRNA inh HTS: 20; AF4-AF9 inh: 3.5; Calb FLC: 9; Beta apoptosis: -2; rRNA inh HTS OD600: 13; rRNA inh HTS RFP: 5.0

What do the screens show for `Cc1cccc(NC(=O)COC(=O)c2cc(C)oc2C)c1`?
FGF22 binding: inactive; RanGTP-Impb inh: -0.5; ALR H2O2 inh: -2; T cruzi repl: -8; rRNA inh HTS: 10; AF4-AF9 inh: -0.2; Calb FLC: -36; rRNA inh HTS OD600: 7; rRNA inh HTS RFP: -1.7

What do the screens show for `NS(=O)(=O)c1ccc(NC(=O)NC2CC(=O)N(c3ccc4c(c3)OCCO4)C2)cc1` (stereo not drawn)?
FGF22 binding: inactive; RanGTP-Impb inh: 7.3; ALR H2O2 inh: -9; T cruzi repl: -11; rRNA inh HTS: 13; AF4-AF9 inh: 0.8; Calb FLC: 11; Beta apoptosis: 4; rRNA inh HTS OD600: 9; rRNA inh HTS RFP: 0.2

How did CCCCNC(=O)C1CC(=O)N(C2CCCCC2)C1 (stereo not drawn) do in these assays?
RanGTP-Impb inh: 4.7; ALR H2O2 inh: -15; T cruzi repl: -3; Calb FLC: 14; Beta apoptosis: -3

Results for CCOc1ccc([N+](=O)[O-])cc1CNC1CCCCCCC1 ?
FGF22 binding: inactive; RanGTP-Impb inh: -2.5; ALR H2O2 inh: -14; T cruzi repl: 12; rRNA inh HTS: 1; AF4-AF9 inh: 6.1; Calb FLC: -8; Beta apoptosis: 2; rRNA inh HTS OD600: -1; rRNA inh HTS RFP: -2.3

How did O=C1/C(=C/c2ccco2)CCc2ccccc21 do in these assays?
FGF22 binding: inactive; RanGTP-Impb inh: 2.1; ALR H2O2 inh: -6; T cruzi repl: 1; rRNA inh HTS: 5; AF4-AF9 inh: -3.3; Calb FLC: -6; Beta apoptosis: -4; rRNA inh HTS OD600: -1; rRNA inh HTS RFP: -2.7

Results for CC(C)(C)c1ccc(CCC2OCC(C[N+]3(C)CCOCC3)O2)cc1 (stereo not drawn) ?
FGF22 binding: inactive; RanGTP-Impb inh: 3.3; ALR H2O2 inh: -16; T cruzi repl: 16; rRNA inh HTS: 4; Calb FLC: -2; Beta apoptosis: -6; rRNA inh HTS OD600: -5; rRNA inh HTS RFP: 2.0

Results for C#CCNC(=O)C1=C[C@@H](c2ccc(Br)cc2)C[C@@H](OCCCCO)O1 ?
FGF22 binding: inactive; RanGTP-Impb inh: -1.5; ALR H2O2 inh: -35; T cruzi repl: -2; rRNA inh HTS: -14; AF4-AF9 inh: -4.8; Calb FLC: 2; Beta apoptosis: 2; rRNA inh HTS OD600: -6; rRNA inh HTS RFP: -2.6

How did Cc1ccccc1NS(=O)(=O)c1cc(C(=O)NCCC2=CCCCC2)ccc1Cl do in these assays?
RanGTP-Impb inh: -2.6; ALR H2O2 inh: -2; T cruzi repl: 14; Calb FLC: 14; Beta apoptosis: -1

How did CC1CCN(CCOCCSc2ccc(Cl)cc2)CC1 do in these assays?
FGF22 binding: inactive; RanGTP-Impb inh: -0.8; ALR H2O2 inh: -3; T cruzi repl: 54; rRNA inh HTS: 8; AF4-AF9 inh: -1.0; Calb FLC: -29; Beta apoptosis: -2; rRNA inh HTS OD600: 5; rRNA inh HTS RFP: 1.9

How did C=C(C)COc1ccc(-c2nc(N)ncc2-c2ccc(OC)c(OC)c2)c(O)c1 do in these assays?
FGF22 binding: inactive; RanGTP-Impb inh: 4.8; ALR H2O2 inh: 17; T cruzi repl: 46; rRNA inh HTS: -3; AF4-AF9 inh: 5.6; Calb FLC: 8; Beta apoptosis: -11; rRNA inh HTS OD600: -2; rRNA inh HTS RFP: -1.1

What do the screens show for `O=C(CNC(=O)c1ccccc1)N/N=C/c1cn[nH]c1-c1ccccc1`?
RanGTP-Impb inh: 4.8; ALR H2O2 inh: -2; T cruzi repl: 6; Calb FLC: -7; Beta apoptosis: 2

How did Cc1cccc(OCC2Cn3c(nc4c3c(=O)[nH]c(=O)n4C)O2)c1 (stereo not drawn) do in these assays?
FGF22 binding: inactive; RanGTP-Impb inh: 1.1; ALR H2O2 inh: 24; T cruzi repl: -10; rRNA inh HTS: 16; AF4-AF9 inh: -1.6; Calb FLC: 20; Beta apoptosis: -13; rRNA inh HTS OD600: 12; rRNA inh HTS RFP: 3.9

Screens (PubChem BioAssay)

This is a subset, so the mix of outcomes need not match the whole.
